Source: PubChem BioAssay
Bm FixLJ act: B. multivorans fixK reporter activation; z-score (no concentration beside the values); 0.3% of 29,000 active; B. multivorans fixK-promoter GFP reporter, 18 h; hits give high values;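 active = replicate mean overnight rise in green fluorescent reporter signal, 3 or more SD over negative controls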;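 note: score is relative to vehicle wells of the plate; 300 nL library stock went into each well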
* marks the source's active call; other numbers are inactive results.

Start of the data: the first 6 compounds as a preview:
Cc1ccc2nc(CN3CCC(c4ccnc(C)n4)CC3)[nH]c2c1
  Bm FixLJ act = 0.41

CCN(CC)S(=O)(=O)c1ccc(NC(=O)CN(c2ccccc2)S(=O)(=O)N(C)C)cc1
  Bm FixLJ act = -2

O=C(CC1CCCCC1)NC1COCC1Cc1ccnc2ccccc12 (configuration not stated)
  Bm FixLJ act = 1

CCOc1ccc(C2CC(=O)N(c3cccc(F)c3)C3=C2C(=O)OC3)cc1 (configuration not stated)
  Bm FixLJ act = -0.87

CCCOc1ccc(Oc2nc(NC)nc(N3CCOCC3)n2)nn1
  Bm FixLJ act = 0.54

COc1cccc(C2c3c(-c4ccccc4O)n[nH]c3C(=O)N2CCc2ccc(OC)c(OC)c2)c1 (configuration not stated)
  Bm FixLJ act = -6.1

This part in full, from the start:
Cc1ccc2nc(CN3CCC(c4ccnc(C)n4)CC3)[nH]c2c1
  Bm FixLJ act = 0.41

CCN(CC)S(=O)(=O)c1ccc(NC(=O)CN(c2ccccc2)S(=O)(=O)N(C)C)cc1
  Bm FixLJ act = -2

O=C(CC1CCCCC1)NC1COCC1Cc1ccnc2ccccc12 (configuration not stated)
  Bm FixLJ act = 1

CCOc1ccc(C2CC(=O)N(c3cccc(F)c3)C3=C2C(=O)OC3)cc1 (configuration not stated)
  Bm FixLJ act = -0.87

CCCOc1ccc(Oc2nc(NC)nc(N3CCOCC3)n2)nn1
  Bm FixLJ act = 0.54

COc1cccc(C2c3c(-c4ccccc4O)n[nH]c3C(=O)N2CCc2ccc(OC)c(OC)c2)c1 (configuration not stated)
  Bm FixLJ act = -6.1

Cc1cn2c(=O)cc(COc3ccc(NC(=O)c4ccc(C(C)(C)C)cc4)cc3)nc2s1
  Bm FixLJ act = 0.74

CCOc1ccc(-c2nc(C(N)=O)c3c(n2)n(-c2ccc4c(c2)OCO4)c(=O)n3CC)cc1
  Bm FixLJ act = -0.83

C[C@]12CCC(=O)C=C1C=CC1C2CC[C@@]2(C)C1CC[C@@]21CCC(=O)O1 (some centres not stated)
  Bm FixLJ act = -2.8

COc1ccccc1-c1cc(CNC(=O)CN2C(=O)NC(C)(C)C2=O)on1
  Bm FixLJ act = -0.17

CC(=O)c1cccc(NCc2ccccc2-c2nnc(-c3ccccc3)o2)c1
  Bm FixLJ act = -0.31

COc1ccc(N(C)C(=O)CCS(=O)(=O)c2cccc3nsnc23)cc1
  Bm FixLJ act = -0.33

CCCCOC(=O)c1c(N)n(-c2ccc(OC)cc2OC)c2nc3ccccc3nc12
  Bm FixLJ act = -1.6

COc1ccc(N2CCN(C(=O)c3cc4c(-c5ccccc5F)nn(C)c4s3)CC2)cc1
  Bm FixLJ act = -1.4

CN1CCc2[nH]nc(C(=O)N3CCC(CN4CCOCC4)CC3)c2C1
  Bm FixLJ act = -0.62

CCc1ccccc1Nc1cc(C(=O)NCc2ccc(C)cc2)c2ccccc2n1
  Bm FixLJ act = 1

Cc1ccc(OCc2cc(C(=O)NCc3c(C)n[nH]c3C)oc2C)cc1
  Bm FixLJ act = -0.39

Cc1cc(C#N)c(N2CCC3(CCCN(C4CCCC4)C3=O)C2)nc1C (configuration not stated)
  Bm FixLJ act = -0.19

CCOC(=O)c1c(NC(=O)c2cc(CC(C)C)on2)sc(C(C)=O)c1C
  Bm FixLJ act = 1.2

O=C(Nc1cccc(Cl)c1)c1cc(-c2ccc3c(c2)OCO3)on1
  Bm FixLJ act = -0.31

This is a subset, so the mix of outcomes need not match the whole.
